# PrP 5UTR inh: suppresses PrP 5' UTR mRNA reporter expression; cell-based PrP 5' UTR mRNA reporter, plate reader; inhibition, % (no concentration beside the values); hit rate 0.35% among 340,000;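 active = every replicate at 50% or more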;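 also: 0 = median of the neutral control wells; tested in H4 reporter cells; numbers are from one replicate; inactives centre near -14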
# Sa ugtP lethal: compounds lethal to S. aureus RN4220 ugtP deletion mutant | OD600 growth, 16 h; some inactives read as strong as hits | growth inhibition, % (no concentration beside the values) | hit rate 0.54% among 330,000 | AID 1259309;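 active = z-score under -3 and OD600 up to 0.15 on both plates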;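 also: plate controls were untreated wells for no effect and antibiotic for full effect; wells of about 80 µL received 100 nL stock; the first replicate is given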
# BJeLR lethal: BJeLR cell viability loss. BJeLR (HRASV12) viability, CellTiter-Glo ATP luminescence, 48 h; reference of the scale not given here. inhibition, % (no concentration beside the values). hit rate 0.17% among 300,000. AID 1554;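 active = replicate mean above 50%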;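 also: 50 nL library stock added to about 25 µL; numbers are from one replicate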
# Bead autofluor: counter-screen for toxin protease inhibitors: compound fluorescence; compound autofluorescence counterscreen, microsphere flow cytometry; stronger effect = higher value; hit rate 3.1% among 360,000; fluorescence intensity (no concentration beside the values);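 active = at least 3 SD above the mean of all compounds, about 16000 in these data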;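 also: 100 nL of 1 mM stock went into each well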
# Sa RN4220 lethal: kills Staphylococcus aureus RN4220; S. aureus RN4220 growth, OD600, 16 h; inhibition, % (concentration not given with the values); hit rate 0.33% among 330,000; AID 1259311;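 active = z-score of -3 or lower and OD600 up to 0.18 on both plates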;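 also: plate controls were untreated cells for no effect and reference antibiotic for full effect; stock transfer was 100 nL into about 80 µL; one replicate is shown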
# Mtb hypoxia inh: reduces hypoxia-regulated biosensor signal in M. tuberculosis; M. tuberculosis hypoxia-regulated fluorescent reporter, fluorescence; fluorescence inhibition, % (no concentration beside the values); hit rate 0.1% among 300,000;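 active = 35 to 45% if threefold the growth effect, above 45% if 1.5-fold the growth effect; inactive = the rest, general growth blockers included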;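 also: wells of about 50 µL received 100 nL stock; 0% = vehicle wells and 100% = reference inhibitor wells; whole bacteria with a GFP reporter of the hypoxia response; strong numbers were not always called active; many hits fall short of the cut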
# Mtb hypoxia inh growth: further read-out of Mtb hypoxia inh, marked with its call; growth inhibition, %; measured here: M. tuberculosis growth (absorbance);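 0% = vehicle and 100% = reference antibiotic; read after six days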
# * hit, by the source's call; . = not tested or not shown.
SMILES,PrP 5UTR inh,Sa ugtP lethal,BJeLR lethal,Bead autofluor,Sa RN4220 lethal,Mtb hypoxia inh,Mtb hypoxia inh growth
CC(=O)Nc1ccc(Nc2c3ccccc3nc3ccccc23)cc1,0.5,.,9.8,2540,.,.,.
COc1cccc(CNC(=O)CN(C)S(=O)(=O)c2ccc3c(c2)CC(C)N3C(C)=O)c1 (stereo unspecified),-16.3,10.9,-8.0,5115,2.9,6.8,4.3
COC(=O)COn1c(SC(C)C)nc2ccccc2c1=O,9.0,5.0,0.6,9908,3.5,8.2,5.3
CC(C)CN(C(=O)C1=NN(c2ccccc2)C(=O)CC1)c1c(N)n(Cc2ccccc2)c(=O)[nH]c1=O,-24.1,13.2,.,8330,0.9,2.0,-6.9
CCN(CC)CC(=O)Nc1cccc2c1C(=O)c1ccccc1C2=O,-21.8,13.8,-1.7,2529,8.7,9.6,1.3
CS(=O)(=O)N1CCc2cc(C(=O)N3CCCC3)ccc21,-7.3,0.5,-11.2,4288,8.1,9.1,7.2
CCN(CC)c1ccc(CNc2ccc(Br)cn2)cc1,-25.5,5.9,2.7,5696,-0.1,.,.
CCCc1nnc(NS(=O)(=O)c2ccccc2)s1,-4.1,2.8,3.2,3576,2.2,-10.7,-1.5
CCOC(=O)c1cccc(C(=O)OCC)n1,-4.7,1.2,5.0,4641,3.0,.,.
COCCCNc1nc2ccccc2nc1NS(=O)(=O)c1cccc(C)c1,-21.6,13.8,3.6,2966,8.2,11.4,1.3
O=C(Cc1ccccc1)NCC(=O)Nc1cccc(Br)c1,-12.4,1.4,3.1,4546,8.6,8.0,5.7
O=c1[nH]cccc1-c1nc2ccccc2n1Cc1ccc(F)cc1,-2.8,-0.4,4.3,3511,2.8,6.0,3.2
O=C(Nc1ncc2c(n1)-c1ccccc1CC2)c1ccccc1,-34.1,-7.5,2.4,9496,8.3,.,.
Cc1cc(C(=O)N/N=C/c2ccc(N(C)C)o2)cs1,-21.1,.,-0.6,5217,.,.,.
COc1ccccc1NC(=O)c1cc(-c2ccc(OC)c(OC)c2)nc2ccccc12,-25.4,5.4,30.0,3470,-4.1,-3.7,-4.9
CCCN(CCC)S(=O)(=O)c1cccc(C(=O)Nc2ccc3c(c2)OCO3)c1,-20.8,0.2,9.7,8251,0.6,-0.5,0.5
CCN(CCCNC(=O)COc1cc(=O)n(C)c2ccccc12)c1cccc(C)c1,-27.3,-8.4,4.5,17522*,5.2,-0.4,-5.1
COc1cc(-c2[nH]ncc2CN2CCN(Cc3cccs3)CC2)cc(OC)c1OC,-22.5,2.9,16.0,4438,8.7,-9.0,8.1
Cc1ccc(S(=O)(=O)N2CCC(=O)N(CCOC(=O)NCc3ccccc3)CC2)cc1,.,8.7,.,.,9.6,20.0,13.0
Cc1cccc(COc2ccc(/C=C3/C(=O)N(C)C(=S)N3C)cc2)c1,-24.3,-9.3,-10.0,3828,8.6,-0.3,11.9

# 15 compounds already listed, sorted by SMILES length, ascending:
SMILES,PrP 5UTR inh,Sa ugtP lethal,BJeLR lethal,Bead autofluor,Sa RN4220 lethal,Mtb hypoxia inh,Mtb hypoxia inh growth
CCOC(=O)c1cccc(C(=O)OCC)n1,-4.7,1.2,5.0,4641,3.0,.,.
CCCc1nnc(NS(=O)(=O)c2ccccc2)s1,-4.1,2.8,3.2,3576,2.2,-10.7,-1.5
CCN(CC)c1ccc(CNc2ccc(Br)cn2)cc1,-25.5,5.9,2.7,5696,-0.1,.,.
COC(=O)COn1c(SC(C)C)nc2ccccc2c1=O,9.0,5.0,0.6,9908,3.5,8.2,5.3
O=C(Cc1ccccc1)NCC(=O)Nc1cccc(Br)c1,-12.4,1.4,3.1,4546,8.6,8.0,5.7
Cc1cc(C(=O)N/N=C/c2ccc(N(C)C)o2)cs1,-21.1,.,-0.6,5217,.,.,.
O=C(Nc1ncc2c(n1)-c1ccccc1CC2)c1ccccc1,-34.1,-7.5,2.4,9496,8.3,.,.
O=c1[nH]cccc1-c1nc2ccccc2n1Cc1ccc(F)cc1,-2.8,-0.4,4.3,3511,2.8,6.0,3.2
CCN(CC)CC(=O)Nc1cccc2c1C(=O)c1ccccc1C2=O,-21.8,13.8,-1.7,2529,8.7,9.6,1.3
COCCCNc1nc2ccccc2nc1NS(=O)(=O)c1cccc(C)c1,-21.6,13.8,3.6,2966,8.2,11.4,1.3
Cc1cccc(COc2ccc(/C=C3/C(=O)N(C)C(=S)N3C)cc2)c1,-24.3,-9.3,-10.0,3828,8.6,-0.3,11.9
COc1cc(-c2[nH]ncc2CN2CCN(Cc3cccs3)CC2)cc(OC)c1OC,-22.5,2.9,16.0,4438,8.7,-9.0,8.1
CCCN(CCC)S(=O)(=O)c1cccc(C(=O)Nc2ccc3c(c2)OCO3)c1,-20.8,0.2,9.7,8251,0.6,-0.5,0.5
Cc1ccc(S(=O)(=O)N2CCC(=O)N(CCOC(=O)NCc3ccccc3)CC2)cc1,.,8.7,.,.,9.6,20.0,13.0
CC(C)CN(C(=O)C1=NN(c2ccccc2)C(=O)CC1)c1c(N)n(Cc2ccccc2)c(=O)[nH]c1=O,-24.1,13.2,.,8330,0.9,2.0,-6.9

# (listing goes on)
SMILES,PrP 5UTR inh,Sa ugtP lethal,BJeLR lethal,Bead autofluor,Sa RN4220 lethal,Mtb hypoxia inh,Mtb hypoxia inh growth
Cc1ccc(C(=O)OCc2nnc(-c3ccccc3)o2)cc1S(=O)(=O)N1CCOCC1,-27.6,14.8,7.0,5215,1.9,3.0,-2.0
Cc1ccc2nc(SC(C)C(=O)NCc3ccco3)[nH]c2c1 (stereo unspecified),-5.1,0.5,3.8,2961,-0.3,10.2,14.3
CCCOc1ccc(C(=O)Nc2ccc(CN3CCOCC3)cc2)cc1,-24.9,7.2,10.0,3553,-3.3,-5.1,9.9
COCc1cc(C)n(CC(=O)Nc2ccccc2C(=O)OC)c(=O)c1C#N,13.2,4.4,0.9,3867,0.2,1.4,9.3
O=S(=O)(NCCO)c1cccc2cccnc12,-8.3,2.1,0.4,5549,1.9,.,.
O=c1[nH]ncn1-c1ccccc1C(F)(F)F,-5.6,11.3,-2.1,3110,4.5,5.6,9.9
CC(=O)Nc1ccc(NS(=O)(=O)c2ccc3ccccc3c2)cc1,-5.0,8.3,1.2,7268,5.7,1.7,0.1
COc1ccc(NC(=O)CSc2cc(C(=O)c3nccn3C)c3ccccc3n2)cc1,-26.3,2.3,7.3,3645,-0.8,2.7,0.5
Cc1ccccc1C(=O)NCC(=O)OC(C)C(=O)Nc1cccc(S(=O)(=O)N2CCOCC2)c1 (stereo unspecified),-7.5,2.6,-1.7,5234,-0.6,-10.9,-6.4
COc1cc(/C=N/NC(=O)COc2ccccc2C)ccc1OC(=O)c1cccs1,-31.1,.,-8.7,22564*,.,.,.
Cc1noc(C)c1C(=O)OCC(=O)Nc1ccc(N2CCOCC2)cc1,-7.9,0.3,.,.,-1.7,7.7,-5.5
COC(=O)/C=C1\SC(=NC(=O)c2cccc([N+](=O)[O-])c2)NC1=O,-6.1,5.9,8.1,5627,4.2,7.0,4.1
Clc1cccc(/C=N/Nc2ncnc3ccccc23)c1,-82.3,.,0.4,5847,.,.,.
C#CCn1c(S(=O)(=O)Cc2ccccc2Cl)nc(-c2ccccc2)c1-c1ccccc1,-15.8,15.2,4.2,11876,4.9,2.1,-1.9
O=C(C=Cc1ccccc1)N1CCCC1CO (stereo unspecified),.,-2.3,.,.,-1.7,0.0,1.7
Cc1cccc(NC(=S)NCc2ccco2)n1,-16.2,5.2,-6.2,4652,2.9,-0.1,3.9
CCCCOC(=O)NC1CCS(=O)(=O)C1 (stereo unspecified),-14.6,16.7,2.9,3162,6.1,20.2,9.2
COc1ccc(C(C(=O)NC2CCCCC2)N(Cc2ccco2)C(=O)c2ccccn2)c(OC)c1 (stereo unspecified),-22.1,12.6,-10.3,5895,-3.0,-3.4,5.6
Cc1onc(-c2ccccc2)c1C(=O)N1CCN(CCc2ccccc2)CC1,-10.3,7.2,-17.3,11090,4.7,-5.0,-7.1
C/C(CC1CC(COCC(C)C)OC1=O)=N\NC(N)=S (stereo unspecified),1.7,.,-4.0,1979,.,.,.
CC(C)C(NC(=O)C1CCCCC1)C(=O)Nc1ccccn1 (stereo unspecified),3.5,-2.6,6.3,5642,-1.9,.,.
Nc1ccc(S(=O)(=O)NCC(=O)OCCOc2ccccc2)cc1[N+](=O)[O-],-10.0,5.4,-20.6,5440,0.7,11.0,1.0
CC(C(=O)OCC(=O)Nc1ncc(Cl)cc1Cl)N1C(=O)c2ccccc2C1=O (stereo unspecified),-19.6,0.7,.,3395,-5.6,10.3,13.2
Cc1[nH]c2ccccc2c1/C=N/NC(=O)c1cccc([N+](=O)[O-])c1,-0.7,.,-1.8,4445,.,.,.
CC1CCN(S(=O)(=O)c2ccc(C(=O)N(C)C3CCS(=O)(=O)C3)cc2)CC1 (stereo unspecified),-3.1,-3.3,-6.9,.,-1.4,2.4,11.8
Cc1cc(C)c(S(=O)(=O)NCC(CCC(=O)O)C(F)(F)F)c(C)c1 (stereo unspecified),-11.9,5.3,9.9,5293,9.9,6.0,6.8
Cc1ccc(NC(=O)c2ccc(C)c(NC3=NC4CS(=O)(=O)CC4S3)c2)cc1C (stereo unspecified),-16.4,-4.4,-6.5,6312,-10.8,1.6,11.3
C=CCOc1ccc(/C(O)=C2/C(=O)C(=O)N(CCCn3ccnc3)C2c2cccs2)cc1 (stereo unspecified),-56.5,.,6.3,3872,.,.,.
COc1ccc(C(=O)NC(C)c2nccs2)cc1OC1CCN(C(C)C)CC1 (stereo unspecified),-17.3,8.9,6.9,5514,3.7,4.5,-0.8
CN(CCC#N)C(=O)COC(=O)[C@H](Cc1ccccc1)N1C(=O)c2ccccc2C1=O,-13.0,9.5,-0.3,3997,5.0,1.9,4.7
COc1cc2c(cc1OC)C1(Nc3c-2c(-c2ccccc2)nn3-c2ccccc2)C(=O)Nc2ccccc21 (stereo unspecified),-6.4,.,-2.1,2508,.,.,.
COc1ccc(N2CCN(CC(=O)NCc3ccccc3)CC2)cc1,-9.3,-8.4,11.6,4333,3.9,-2.2,2.9
CCN(CC(=O)Nc1ccc(OC)cc1)C(=O)c1ccc(N2C(=O)CCC2=O)cc1,-10.7,-0.9,.,3435,-0.1,1.4,2.5
CC(=O)c1ccc(C(=O)N2CCC(n3nccc3NC(=O)C3CC3)CC2)cc1,-20.8,-0.7,3.7,5955,4.3,2.9,7.8
CCn1c(SCC(=O)N/N=C/C=C/c2ccco2)nc2ccccc21,6.8,.,-1.0,2504,.,.,.
Cc1cccc(C2=NN(c3ccccc3)[C@@H](C(=O)N3CCOC3=O)[C@@H]2C)c1,-12.8,15.5,.,4651,-7.2,1.1,7.5
COc1ccc(F)c(CN2CCC(N3CCC(C(=O)N4CCOCC4)CC3)CC2)c1,-28.1,-0.2,12.4,4932,-0.3,4.0,-0.3
CC(C)(C)OC(=O)C[C@@H]1C/C=C\C[C@H](CC(=O)N(CCO)Cc2ccccc2)C(=O)N[C@@H](c2ccccc2)COC1=O,-20.9,8.0,.,2726,-1.2,0.9,-1.8
COc1ccc(-c2ccc(C3C4C=CCC(C)C4C(=O)N3Cc3ccccc3)c(F)c2)cc1C (stereo unspecified),.,-0.4,.,.,-3.1,-7.1,15.1
CCOC(=O)C1CCCN(c2nnnn2-c2ccccc2)C1 (stereo unspecified),-17.8,0.4,8.9,4018,-1.0,11.6,2.1
O=C(NNS(=O)(=O)c1ccc(F)cc1)C1CCCCC1,10.6,9.8,2.9,3035,1.4,5.0,2.1
CCN(CC)S(=O)(=O)c1cccc(NC(=O)/C=C/c2cccc([N+](=O)[O-])c2)c1,15.7,-1.4,-3.5,2410,0.6,5.3,3.5
Cc1ccnc(NS(=O)(=O)c2ccc(NC(=O)c3ccccc3F)cc2)n1,-20.4,4.9,0.1,3847,-1.5,9.5,6.5
CC1CCN(Cc2c(C(=O)NN=Cc3ccc(C(F)(F)F)cc3)nnn2-c2nonc2N)CC1,.,13.3,.,.,3.7,-4.8,-0.3
Cc1ccc(-c2c(C(=O)N/N=C/c3ccsc3)nnn2-c2nonc2N)cc1,-21.9,.,2.7,5489,.,.,.

# Compounds as they come, and some 4% of all compounds hit somewhere here.
